SARS PLP yeast – SARS-CoV PLP inhibition in yeast | actives 0.19% (n = 330,000) | S. cerevisiae expressing SARS-CoV PLpro, growth rescue; control for the full effect not named in the record | AID 485353 | Potency, µM (highest dose often 32.9 µM), for inactives: top-dose activity, positive = growth rescue; active means well fitted rising curve with a large enough effect; inconclusive means small, poorly fitted or top-dose-only effect; inactive means no such curve, though single readings can be large or run the other way; also: 0% is about no effect; nearly all actives have a fitted effect of over 55% in size; growth read by luminescence after 48 h
2A StopGo – FMDV 2A StopGo reporter, luciferase signal; actives 1.2% (n = 410,000); Potency, µM (highest dose often 57.9 µM), inactives show top-dose signal change, negative = less light; human cells with a luciferase reporter of 2A StopGo recoding; control for the full effect not named in the record; active = well fitted falling curve with a large enough effect; inconclusive = small, poorly fitted or top-dose-only effect; inactive = no such curve, though single readings can be large or run the other way; tested in HEK293T cells; also: % is scaled to controls: 0 for no effect and ±100 for the full control effect; nearly all actives have a fitted effect of over 45% in size; luciferase light after 4 h
Cruzain Triton – blocks cruzain activity in presence of Triton detergent; P25779; purified cruzain, Z-FR-AMC fluorescence, 0.01% Triton; Potency, µM, inactives show max response, negative = inhibition, most hits filed as inhibitors; actives 0.43% (n = 200,000); AID 1478;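 also: plate controls were neutral wells for no effect and buffer without enzyme for full effect; nearly all actives have a fitted effect of over 40% in size; top concentration of the series not given in the record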
Target sequence (P25779 123-467 limits assumed): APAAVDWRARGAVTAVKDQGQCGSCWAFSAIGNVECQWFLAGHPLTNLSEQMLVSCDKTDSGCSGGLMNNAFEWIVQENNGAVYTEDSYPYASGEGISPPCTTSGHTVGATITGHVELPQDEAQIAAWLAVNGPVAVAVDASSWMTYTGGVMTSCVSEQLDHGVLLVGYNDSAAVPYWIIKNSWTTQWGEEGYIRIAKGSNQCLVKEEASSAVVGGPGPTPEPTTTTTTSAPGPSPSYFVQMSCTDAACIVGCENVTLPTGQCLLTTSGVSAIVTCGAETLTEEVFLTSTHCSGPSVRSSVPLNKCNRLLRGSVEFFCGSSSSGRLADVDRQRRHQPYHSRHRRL
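Enzyme 1.5 nM, Z-FR-AMC 2 uM, NaOAc 100 mM pH 5.5, DTT 5 mM, Triton X-100 0.01%; 15 min RT compound preincubation; kinetic ex360/em450, 60 s delta.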
NS1 inh – influenza NS1 inhibition | S. cerevisiae slowed by influenza A NS1, growth recovery by OD600 | actives 0.4% (n = 270,000) | Potency, µM (series often up to 46.1 µM), inactives show at the top dose activity, positive = more growth; active means well fitted rising curve with a large enough effect; inconclusive means small, poorly fitted or top-dose-only effect; inactive means no such curve, though single readings can be large or run the other way; also: nearly all actives have a fitted effect of over 50% in size
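Compounds were scored for reversing the slow growth caused by influenza A NS1 in S. cerevisiae, measured by optical density at 600 nm. Assay medium contained 2% galactose at pH 6.0; NS1-free yeast of the same strain were the positive control.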
Lassa entry inh – Lassa virus entry inhibition. Lassa virus pseudotype entry inhibition, cell reporter; control for the full effect not named in the record. Potency, µM (doses to about 37.9 µM), for the others: top-dose activity change, negative = inhibition, hits mostly inhibitors. actives 1.2% (n = 300,000). AID 540256; active means well fitted inhibition curve with a large enough effect; inconclusive means small, poorly fitted or top-dose-only effect, or effect the other way; inactive means flat fitted curve, though single readings scatter; tested in HEK293 cells; also: % is scaled to controls: 0 for no effect and ±100 for the full control effect; nearly all actives have a fitted effect of over 50% in size; luciferase read-out
Cruzain noTriton – cruzain (T. cruzi) inhibition without detergent; purified cruzain, Z-FR-AMC fluorescence, no detergent; actives 2.3% (n = 200,000); AID 1476; P25779; Potency, µM, for inactives: max response, negative = inhibition, actives largely listed as inhibitors;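 also: plate controls were enzyme without inhibitor for no effect and buffer without enzyme for full effect; nearly all actives have a fitted effect of over 40% in size; top concentration of the series not given in the record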
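Purified cruzain at 1.5 nM, pre-incubated 15 min with compound at room temperature in 100 mM sodium acetate pH 5.5, 5 mM DTT, 0.00005% Triton X-100. Reaction started with 2 uM Z-FR-AMC; AMC fluorescence increase over 60 s gives rate.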
RE007 growth inh – less growth of the S. pombe RE007 Vpr strain. S. pombe RE007 Vpr strain, BacTiter-Glo ATP luminescence, 24 h; control for the full effect not named in the record. actives 0.21% (n = 360,000). Potency, µM (titrated, usually from 92.2 µM), for inactives: at the highest dose activity change, negative = less growth. AID 651644; active = well fitted falling curve with a large enough effect; inconclusive = small, poorly fitted or top-dose-only effect; inactive = no such curve, though single readings can be large or run the other way;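 also: % is scaled to controls: 0 for no effect and ±100 for the full control effect; nearly all actives have a fitted effect of over 50% in size; the assay follows cell death caused by Vpr and the record does not say whether a fall means rescue or toxicity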
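Fission yeast strain RE007, carrying one chromosomally integrated HIV-1 vpr copy, was seeded at OD 0.01 in PMG+AL medium with 23 nL pinned compound. After 24 h at 30 °C and 99% humidity, viability was read by BacTiter-Glo luminescence.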
Marburg entry inh – inhibitors of Marburg virus binding or cell entry; Marburg virus pseudotyped entry inhibition, cell reporter; control for the full effect not named in the record; about a third of the inactives were read at about 46 µM; Potency, µM (series often up to 37.8 µM), inactives show at the highest dose activity change, negative = inhibition, most hits filed as inhibitors; actives 1.8% (n = 300,000); active = well fitted inhibition curve with a large enough effect; inconclusive = small, poorly fitted or top-dose-only effect, or effect the other way; inactive = flat fitted curve, though single readings scatter; tested in HEK293 cells; about a fifth of its hits are not listed in these tables; also: % is scaled to controls: 0 for no effect and ±100 for the full control effect; luciferase read-out
Starred values were filed as active, the others as inactive; u = inconclusive; x = not tested or not shown; & = joins results of further samples; [ ] = dose if it differs, or a comment. Unless noted, calls follow the shape of the dose curve; as a rule, active = well fitted curve in the direction sought with a large enough effect; inconclusive = small, poorly fitted or top-dose-only effect, or another doubt; inactive = no such curve, though single readings can be large; an effect the other way counts as inactive or inconclusive. Potency is read from the fitted curve at half-maximal effect.

SMILES	SARS PLP yeast	2A StopGo	Cruzain Triton	NS1 inh	Lassa entry inh	Cruzain noTriton	RE007 growth inh	Marburg entry inh
COc1ccc2c(c1)c(N=O)c(O)n2C	7%	-17%	-1.4%	-10%	u	-2%	-2%	u
O=C1CCCN1CCCNS(=O)(=O)c1ccccc1	5%	-5%	x	17%	x	x	-16%	x
COCCN(C(=O)c1snc(C(N)=O)c1N)C(C(=O)NC1CCCCC1)c1ccc(F)cc1 (stereo not drawn)	1%	1%	x	-15%	x	x	10%	x
CCCCCc1c(C)[nH]c2nc3ccccc3n2c1=O	-10%	0%	x	-7%	25%[46.1 µM]	x	4%	u
COc1cc2[nH]c(C(=O)N3CCC4(CC3)OCCO4)cc2c(OC)c1OC	0%	12%	x	-1%	x	x	-7%	x
CC1(C)Cc2c(sc3ncn4nc(-c5ccco5)nc4c23)CO1	x	-17%	x	x	-16%	x	-6%	-13%&-13%
O=C(COC(=O)c1ccc2c(c1)C(=O)N(Cc1ccco1)C2=O)NCC(F)(F)F	-2%	5%	x	0%	9%	x	5%	1%
O=C(NCCS(=O)(=O)N1CCN(c2ccccc2F)CC1)c1ccc(Br)cc1	1%	-6%	x	7%	x	x	18%	x
CN1CCN(C(=O)c2cnn(-c3ccccc3)c2NC(=O)c2ccc(Br)cc2)CC1	x	-7%	x	x	8%	x	2%	-2%
O=C(Cn1c(C(=O)O)cc2ccccc21)c1ccccc1	2%	-1%	x	-2%	1%	x	5%	2%
Cc1cc(C)c2c(=O)cc(C(=O)Nc3sc4c(c3C(=O)NCC3CCCO3)CCCC4)oc2c1 (stereo not drawn)	x	-2%	0.3%	x	13%[46.1 µM]	11%	x	9%[46.1 µM]
OCCN1CCN(c2nc(-c3ccccc3)nc3c2oc2ccccc23)CC1	-4%	u	0.0%	-72%	u	4%	-20%	u
O=C(CCC(=O)Nc1ccc(Br)cc1)N/N=C/c1cc([N+](=O)[O-])ccc1O	5%	-4%	x	x	u	x	-3%	u
COCCCN(C(=O)c1cc2c(s1)CCCCC2)c1c(N)n(Cc2ccccc2)c(=O)[nH]c1=O	-3%	-13%	x	x	10µM*	x	0%	-17%[46.1 µM]
O=C(Nc1cccc(S(=O)(=O)N2CCCCCC2)c1)c1cncc(Br)c1	0%	u	x	x	u	x	18%	u
CC(c1ccco1)N(C(=O)c1ccc(S(=O)(=O)N2CCCCC2)cc1)c1ccccn1 (stereo not drawn)	-2%	68%[activator]	5.3%	-4%	-8%	8%	16%	-8%&-5%
CNC(=O)c1sc(SC)cc1-c1ccc(Cl)cc1	-2%	0%	-1.5%	-14%	17%	-1%	-5%	13%
CN(CC(=O)NNC(=O)c1cccnc1)S(=O)(=O)c1cc(Cl)ccc1Cl	-1%	-11%	x	9%	9%[46.1 µM]	x	-5%	-6%[46.1 µM]
Cc1ccc(C2(C(F)(F)F)NC(=O)N3CCCN=C3S2)cc1 (stereo not drawn)	-9%	x	0.9%	-7%	3%	0%	-16%	-7%
CCC1CCCN1Cn1cnc2c([nH]c3ccccc32)c1=O (stereo not drawn)	1%	0%	-5.5%	-5%	7%	-13%	-18%	-13%
COc1ccc2c(c1)c(C(C)=O)c(C)n2-c1ccccc1	-14%	x	-10%	-15%	4%	-2%	-1%	3%
O=C(CN1CCN(Cc2ccccc2Cl)CC1)N/N=C/c1ccccn1	-1%	-5%	x	-2%	x	x	6%	x
O=C(CSC(=S)N1CCCC1)N(Cc1nnc(-c2ccccc2Cl)o1)C1CC1	-1%	1%	x	x	-7%	x	-6%	-5%
O=C1C2C3CCC(CC3)C2C(=O)N1c1ccccc1 (stereo not drawn)	4%	-19%	x	5%	-9%[46.1 µM]	x	1%	6%[46.1 µM]
CCOc1ccc(NC(=O)c2ccco2)cc1	-14%	-22%	6.2%	-1%	u	-11%	-10%	u
Nc1c(C(=O)Nc2ccccc2Cl)c2ccccn2c1C(=O)c1ccc(Cl)cc1	x	-25%	-0.7%	x	3%[46.1 µM]	-9%	x	24%[46.1 µM]
C[C@@H](C(=O)NCCCCCC(=O)O)n1nnc2ccccc2c1=O	1%	-6%	x	3%	17%	x	5%	-1%[46.1 µM]
CN1CCN(c2nc(-c3cccs3)cc(C(F)(F)F)n2)CC1	-1%	-25%	-0.9%	-4%	-29%	-7%	-14%	u
CC(=O)NC1=NC(=O)/C(=C/c2cc(C)n(-c3cccc(C(=O)O)c3)c2C)S1	-1%	-5%	x	x	-16%	x	17%	-3%[46.1 µM]
COC(=O)c1ccccc1NC(=O)CSc1nc(-c2ccco2)cc(C(F)(F)F)n1	0%	x	-8.3%	-30%	-19%	21%	-5%	u
CC(C)NC(=O)NC(=O)COC(=O)c1c2c(nc3ccccc13)CCC2	0%	11µM*	x	0%	x	x	8%	u
Cc1nc2scc(-c3cccs3)c2c(=O)n1N	-3%	-8%	-1.1%	-4%	-2%	0%	3%	2%
COc1cccc(C2Nc3c(F)cc(Br)cc3C3C=CCC32)c1OC (stereo not drawn)	-83%	-20%	-5.0%	8%	-2%	u	2%	-2%
COc1ccc(/C=C(/NC(=O)c2ccco2)C(=O)NCc2ccco2)cc1OC	4%	17%	x	3%	20%	x	3%	-3%
O=C(NCc1ccc2c(c1)OCO2)C1CC(=O)N(CCc2ccc(F)cc2)C1 (stereo not drawn)	-1%	-3%	x	7%	11%	x	41%	1%[46.1 µM]
C[C@@H]1CN(Cc2nc(-c3cnccn3)no2)C[C@H](C)O1	0%	0%	x	-2%	-13%[46.1 µM]	x	4%	12%[46.1 µM]
Cc1csc(=O)n1CC(=O)OCC(=O)NCc1ccc(Cl)cc1Cl	6%	-22%	x	x	11%	x	-10%	-11%
NS(=O)(=O)c1cccc(NC(=O)COC(=O)Cc2ccc(S(=O)(=O)N3CCCCC3)s2)c1	5%	-18%	x	x	x	x	9%	3%
CC(C)Cn1c(=O)c2sccc2n2c(CCCC(=O)N3CCC(N4CCCCC4)CC3)nnc12	-5%	25%	x	-9%	28%[46.1 µM]	x	-3%	25%[46.1 µM]
O=S1(=O)[C@H]2C[C@H](CO)O[C@@]2(CO)CN1Cc1ccc(-c2cccc(Cl)c2)cc1	-9%	-34%	x	x	x	x	-3%	2%
CCOC(=O)Cn1c(=O)c2c(nc(N3CCCCC3)n2C)n(C)c1=O	2%	-15%	-5.0%	-16%	3%	-4%	2%	6%
COc1ccc(C(=O)Nc2ccc(NC(=O)C3CC3)nc2)cc1	4%	0%	x	-3%	10%	x	19%	-6%[46.1 µM]
CNC(=O)C(Sc1ccccc1)c1ccccc1 (stereo not drawn)	-3%	4%	2.1%	10%	3%	-2%	-13%	9%
CCCn1nnc2c(=O)oc3ccccc3c21	-25%	-14%	-3.7%	-33%	-12%	7%	-5%	3%
CCc1nnc(NC(=O)C2CCN(c3cnccn3)CC2)s1	6%	-17%	-3.5%	0%	7%	-4%	17%	14%
Cc1ccc2c(c1)-c1c(ssc1=S)C(C)(C)N2C(=O)CN1C(=O)c2ccccc2C1=O	1%	-19%	0.2%	11%	-22%	u	3%	u
CC(=O)N1CCc2cc(CNS(=O)(=O)c3ccccc3C(F)(F)F)ccc21	x	16%	-0.2%	x	-1%[46.1 µM]	1%	x	x
CCC(C)NC(=O)C1c2ccccc2C(=O)N(c2ccc(OC)cc2)C1c1ccc(OC)cc1 (stereo not drawn)	-5%	3%	-1.4%	1%	u	23%	-5%	-4%
COc1ccc(N2C(=O)C3CCCN3C2c2cccc(F)c2)cc1Cl (stereo not drawn)	2%	15%	-2.3%	-6%	-3%	-7%	-10%	u
COc1ccc(C(=O)Nc2nc(CC(=O)NCCc3ccccc3)cs2)cc1	0%	-5%	x	x	-2%	x	6%	-42%
Cc1ccc(C(OC(=O)c2ccco2)C(=O)NC2CCCC2)cc1 (stereo not drawn)	-1%	3%	x	-11%	1%[46.1 µM]	x	-16%	u
Brc1ccc(-c2ccc(/C=N/Nc3nc4ccccc4[nH]3)o2)cc1	-106%	-20%	u	u	x	7.9µM*	u	x
COc1ccc(-c2nonc2NC(=O)c2oc3ccccc3c2C)cc1OC	-1%	-13%	x	-14%	x	x	-8%	x
COCCNC(=O)Cn1cnc([N+](=O)[O-])n1	5%	-13%	x	x	6%	x	-13%	u
CCOC(=O)/C=C1\SCC(=O)N1Cc1nnc(-c2ccccc2Br)o1	1%	-15%	-13%	-12%	13%	u	7%	-1%&9%
Cn1c(=O)c2c(ncn2CC(=O)N2CCN(c3ccc(F)cc3)CC2)n(C)c1=O	-3%	-8%	2.8%	-8%	1%	4%	0%	1%
CCOc1ccc(N2C(=O)CC(N(CCc3ccccc3)C(=O)/C=C/C(=O)O)C2=O)cc1 (stereo not drawn)	-6%	-13%	x	-3%	1%	x	2%	-1%[46.1 µM]
Cc1ccc2cc(CN(CC3CCCO3)C(=O)C(C)C)c(=O)[nH]c2c1 (stereo not drawn)	9%	-1%	-1.6%	-14%	13%	-15%	-9%	1%
O=C(N/N=C/c1cc(Cl)cc([N+](=O)[O-])c1O)c1cccc(S(=O)(=O)N2CCOCC2)c1	-9%	-4%	x	x	-2%	x	-20%	u
COc1cc(OC)cc(-c2nc3nc(C)c(CCC(=O)Nc4ccccc4)c(C)n3n2)c1	x	-18%	0.4%	x	17%[46.1 µM]	7%	x	-4%[46.1 µM]

Next entries.
SMILES	SARS PLP yeast	2A StopGo	Cruzain Triton	NS1 inh	Lassa entry inh	Cruzain noTriton	RE007 growth inh	Marburg entry inh
Cc1ccc(CN2CCCN(Cc3ccccc3C)S2(=O)=O)cc1	-5%	9%	x	-6%	-1%[46.1 µM]	x	60%	5%[46.1 µM]
COc1c(C(=O)Nc2nccs2)ccc2ccccc12	-4%	16%	x	-4%	x	x	u	x
CCOC(=O)C1CCN(C(=O)C2(NC(=O)Nc3cccc(F)c3)CCCCC2)CC1	0%	18%	x	x	10%	x	-8%	-5%
CC(C)(C)c1cc[n+](C2=C([O-])c3ccccc3C(=O)/C2=N\S(=O)(=O)c2cccs2)cc1	0%	8.9µM*	x	-6%	u	x	-26%	10µM*
